Cruzain Triton: blocks cruzain activity in presence of Triton detergent | P25779 | purified cruzain, Z-FR-AMC fluorescence, 0.01% Triton | Potency, µM, for the others: max response, negative = inhibition, actives largely listed as inhibitors | hit rate 0.43% among 200,000; active = well fitted curve in the direction sought with a large enough effect; inconclusive = small, poorly fitted or top-dose-only effect, or another doubt; inactive = no such curve, though single readings can be large; an effect the other way counts as inactive or inconclusive;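 note: plate controls were neutral wells for no effect and buffer without enzyme for full effect; nearly all actives have a fitted effect of over 40% in size; top concentration of the series not given in the record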
Target sequence (P25779 123-467 limits assumed): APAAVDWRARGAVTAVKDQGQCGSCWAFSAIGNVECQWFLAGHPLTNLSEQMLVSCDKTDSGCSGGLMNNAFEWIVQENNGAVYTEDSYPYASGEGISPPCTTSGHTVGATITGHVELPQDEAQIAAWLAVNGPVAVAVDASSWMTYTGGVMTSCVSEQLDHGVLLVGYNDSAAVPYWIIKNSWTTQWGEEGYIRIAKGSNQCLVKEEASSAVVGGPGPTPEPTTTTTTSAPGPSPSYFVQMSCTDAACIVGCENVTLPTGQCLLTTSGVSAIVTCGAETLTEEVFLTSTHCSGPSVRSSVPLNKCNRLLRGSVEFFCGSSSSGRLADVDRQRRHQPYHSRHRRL
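In this qHTS format, compounds are incubated with 1.5 nM cruzain for 15 min at room temperature before 2 uM Z-FR-AMC is added. Release of AMC is followed at 360/450 nm, and progress is taken as the 60 s fluorescence difference.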
LASV entry inh: inhibitors of Lassa virus binding or cell entry | hit rate 1.2% among 300,000 | AID 540256 | Lassa virus pseudotype entry inhibition, cell reporter; control for the full effect not named in the record | Potency, µM (doses to about 37.9 µM), for inactives: at the highest dose activity change, negative = inhibition, actives largely listed as inhibitors; active means well fitted inhibition curve with a large enough effect; inconclusive means small, poorly fitted or top-dose-only effect, or effect the other way; inactive means flat fitted curve, though single readings scatter; tested in HEK293 cells; note: % is set by controls: 0 for no effect and ±100 for the full control effect; nearly all actives have a fitted effect of over 50% in size; luciferase read-out
NS1 function inh: influenza NS1 inhibition | S. cerevisiae slowed by influenza A NS1, growth recovery by OD600 | Potency, µM (doses to about 46.1 µM), for inactives: top-dose activity, positive = more growth | hit rate 0.4% among 270,000 | AID 2326; note: actives are rising curves; nearly all actives have a fitted effect of over 50% in size
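In this qHTS, NS1 from influenza A is expressed in budding yeast, where it slows growth. Cells are switched from glucose to 2% galactose medium (pH 6.0, -URA), treated with compound, and growth recovery is read at OD600.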
Cruzain inh noDet: cruzain (T. cruzi) inhibition without detergent. Potency, µM, without a hit: max response, negative = inhibition, actives largely listed as inhibitors. purified cruzain, Z-FR-AMC fluorescence, no detergent. hit rate 2.3% among 200,000. P25779; active = well fitted curve in the direction sought with a large enough effect; inconclusive = small, poorly fitted or top-dose-only effect, or another doubt; inactive = no such curve, though single readings can be large; an effect the other way counts as inactive or inconclusive;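 note: plate controls were enzyme without inhibitor for no effect and buffer without enzyme for full effect; nearly all actives have a fitted effect of over 40% in size; top concentration of the series not given in the record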
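Purified cruzain at 1.5 nM, pre-incubated 15 min with compound at room temperature in 100 mM sodium acetate pH 5.5, 5 mM DTT, 0.00005% Triton X-100. Reaction started with 2 uM Z-FR-AMC; AMC fluorescence increase over 60 s gives rate.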
StopGo reporter: FMDV 2A StopGo reporter, luciferase signal; human cells with a luciferase reporter of 2A StopGo recoding; control for the full effect not named in the record; Potency, µM (highest dose often 57.9 µM), for inactives: top-dose signal change, negative = less light; hit rate 1.2% among 410,000; active = well fitted falling curve with a large enough effect; inconclusive = small, poorly fitted or top-dose-only effect; inactive = no such curve, though single readings can be large or run the other way; tested in HEK293T cells; note: % is set by controls: 0 for no effect and ±100 for the full control effect; nearly all actives have a fitted effect of over 45% in size; luciferase light after 4 h
Marburg entry inh: Marburg virus entry inhibition; Marburg virus pseudotyped entry inhibition, cell reporter; control for the full effect not named in the record; about a third of the inactives were read at about 46 µM; Potency, µM (top dose mostly 37.8 µM), for the others: at the top dose activity change, negative = inhibition, most hits filed as inhibitors; hit rate 1.8% among 300,000; active = well fitted inhibition curve with a large enough effect; inconclusive = small, poorly fitted or top-dose-only effect, or effect the other way; inactive = flat fitted curve, though single readings scatter; tested in HEK293 cells; about a fifth of its hits are not listed in these tables; note: % is set by controls: 0 for no effect and ±100 for the full control effect; luciferase read-out
SARS PLpro yeast: SARS-CoV PLP inhibition in yeast | S. cerevisiae expressing SARS-CoV PLpro, growth rescue; control for the full effect not named in the record | hit rate 0.19% among 330,000 | Potency, µM (titrated, usually from 32.9 µM), without a hit: top-dose activity, positive = growth rescue; note: 0% is about no effect; nearly all actives have a fitted effect of over 55% in size; growth read by luminescence after 48 h
RE007 growth inh: less growth of the S. pombe RE007 Vpr strain | hit rate 0.21% among 360,000 | S. pombe RE007 Vpr strain, BacTiter-Glo ATP luminescence, 24 h; control for the full effect not named in the record | Potency, µM (top dose mostly 92.2 µM), without a hit: at the top dose activity change, negative = less growth; active = well fitted falling curve with a large enough effect; inconclusive = small, poorly fitted or top-dose-only effect; inactive = no such curve, though single readings can be large or run the other way;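 note: % is set by controls: 0 for no effect and ±100 for the full control effect; nearly all actives have a fitted effect of over 50% in size; the assay follows cell death caused by Vpr and the record does not say whether a fall means rescue or toxicity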
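Fission yeast RE007 carrying one integrated HIV-1 vpr copy, seeded at OD 0.01 in PMG+AL medium with 23 nL pinned compound. Grown 24 h at 30 degrees; viability read by BacTiter-Glo luminescence after 5 min.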
An asterisk follows results filed as active; u = inconclusive; x = not tested or not shown; & = joins results of further samples; [ ] = another dose, or the depositor's remark. Unless noted, calls come from the whole dose curve; as a rule, active means well fitted rising curve with a large enough effect; inconclusive means small, poorly fitted or top-dose-only effect; inactive means no such curve, though single readings can be large or run the other way. Potency is the fitted concentration of half-maximal effect.

SMILES | Cruzain Triton | LASV entry inh | NS1 function inh | Cruzain inh noDet | StopGo reporter | Marburg entry inh | SARS PLpro yeast | RE007 growth inh
O=C(/C=C/c1ccccc1)NCC1(c2ccccc2)CCOCC1 | x | 9% | -7% | x | -8% | 0% | 2% | 2%
Cc1ccc(Cn2ccc(NC(=O)c3cc(-c4ccccc4)on3)n2)cc1 | -4.2% | 1% | 0% | 3% | -11% | -23% | 4% | -29%
Cc1ccc(Cc2nc3ccccc3nc2SCC(=O)NCCC(C)C)cc1 | 1.2% | -13%[46.1 µM] | x | -3% | -2% | x | x | x
COc1ccc(CCNC(=O)c2ccc3c(c2)S(=O)(=O)N=C2CCCCCN23)cc1 | x | u | x | x | -3% | 16% | 6% | -2%
COc1ccc(-n2ncc(C(C)NS(=O)(=O)c3ccc(C(C)=O)cc3)c2C)cc1 (stereo unspecified) | x | -16% | -5% | x | -12% | 16% | -7% | 1%
CN1/C(=C/C(=S)NC(=O)C2(C)CC2(Cl)Cl)C(C)(C)c2ccccc21 (stereo unspecified) | x | 13%[46.1 µM] | 20% | x | -23% | u | 22% | 8%
Cc1ccc2[nH]c(=O)c(CN(CCN3CCOCC3)C(=O)Nc3ccc(F)cc3)cc2c1 | 2.5% | -1% | -11% | -7% | 0% | -10% | 4% | -3%
CCOC(=O)CSc1nc(C)c(Oc2ccc(Cl)cc2Cl)c(=O)[nH]1 | x | 14% | 3% | x | 17% | 0%[46.1 µM] | 0% | -2%
Cc1sc(NC(=O)CN2C(=O)NC3(CCCC3)C2=O)nc1-c1ccc(F)cc1 | x | -24% | x | x | -14% | u | -1% | 13%
COc1ccc(CCNC(=O)c2ccc3c(c2)nc2n3CCCCC2)cc1OC | 5.3% | 1%[46.1 µM] | x | -11% | -10% | x | x | x
CC(=O)N1CCc2cc(S(=O)(=O)CCC(=O)Nc3ccc(C)cc3Br)ccc21 | -5.2% | 18%[46.1 µM] | x | 6% | -17% | -9%[46.1 µM] | x | x
CCOc1cccc(-c2nnc3sc(COc4ccccc4)nn23)c1 | -8.2% | 1% | 3% | -12% | 20% | 24% | -10% | -1%
Cc1ccc(S(=O)(=O)N(C)c2ccc(OCC(=O)NCc3ccco3)cc2)cc1 | -0.5% | u | 5% | 0% | -10% | -13% | 0% | -11%[3.69 µM]
COc1ccc(NC(=O)c2cccc(OC(=S)N3CCOCC3)c2)cc1 | x | x | -2% | x | -20% | x | 1% | 9%
COc1ccccc1CNC(=O)CCCn1c(=O)c2cccn2c2ccccc21 | -4.3% | 2%[46.1 µM] | x | u | u | x | x | x
Cc1ccc(S(=O)(=O)N2CCC(=O)N(C(COCc3cccc(Cl)c3)Cc3ccccc3)CC2)cc1 (stereo unspecified) | -0.1% | u | 21% | -9% | -20% | u | 1% | -6%
COCCCNC(=O)c1oc2c(c1C)-c1nn(Cc3ccc(Cl)cc3)cc1CC2 | -4.5% | -12%[46.1 µM] | x | -1% | -28% | x | x | x
Cc1cc[n+](-c2[nH]c(=O)sc2/C=N/N=C(\[O-])CCn2c3ccccc3c3ccccc32)cc1 | x | 19%[46.1 µM] | 7% | x | -14% | 25%[46.1 µM] | 0% | -9%
COC(=O)C1=C(c2ccccc2)c2ccccc2S(=O)(=O)N1CC(=O)Nc1ccccc1Cl | -6.3% | -22%[46.1 µM] | x | -22% | -4% | u | x | x
COc1cccc(C2c3c(oc4ccccc4c3=O)C(=O)N2c2ccccn2)c1 (stereo unspecified) | 2.8% | x | -11% | u | -28% | x | -3% | -6%
O=C(NC1CCCCC1)C(c1cccnc1)N(C(=O)CCl)c1cccc(Cl)c1 (stereo unspecified) | -1.2% | u | 15% | -12% | 7.9µM* | u | -14% | 12%
Cc1ccc(CSc2n[nH]c(N)n2)cc1 | x | -6%[46.1 µM] | 4% | x | 0% | 13%[46.1 µM] | 1% | -5%
Cc1ccc(-c2nc(CCNC(=O)C(=O)Nc3ccc(C)cc3C)cs2)cc1 | -2.2% | 20%[46.1 µM] | x | -3% | -27% | x | x | x
C=CCn1c(Cc2c[nH]c3ccccc23)n[nH]c1=S | -0.9% | -1% | u | -3% | x | -14% | 6% | 6%
CCCCNC(=O)C(Cc1ccccc1)NS(=O)(=O)c1ccc2c(c1)c(=O)n(C)c(=O)n2C (stereo unspecified) | -0.1%&1.0% | 7%[46.1 µM] | 0% | 15%&-2% | -13%&-10% | -8%[46.1 µM] | 7% | 0%
Next section.
SMILES | Cruzain Triton | LASV entry inh | NS1 function inh | Cruzain inh noDet | StopGo reporter | Marburg entry inh | SARS PLpro yeast | RE007 growth inh
Cc1nn(-c2ccccc2)c(Cl)c1/C=N/NC(=O)c1[nH]ncc1Br | x | x | -8% | x | 0% | x | -4% | -8%
CCCc1cnc2c(c1SCc1ccc(C(F)(F)F)cc1)c(=O)n(C)c(=O)n2C | -0.3% | 9%[46.1 µM] | x | -1% | u | x | x | x
N#Cc1ccc(COc2cccc3cccnc23)cc1 | x | 1% | 1% | x | 25% | 18%[46.1 µM] | -5% | -24%
O=C(Nc1ccccn1)Nc1ccccc1Cl | x | x | -14% | x | 73%[activator] | x | -9% | -8%
Cc1nc(Cl)c(C(=O)NCc2ccccc2)c(C)c1[N+](=O)[O-] | x | -12%[46.1 µM] | 3% | x | -6% | 0%[46.1 µM] | -2% | -9%
CC(C)Oc1snc(Cl)c1C(N)=O | 4.6% | -1% | 2% | 1% | 0% | 16% | -6% | 7%
NC(=O)CSc1nnc(Cn2c(=O)sc3ccccc32)n1-c1cccc(Cl)c1 | 6.3% | -1% | -1% | 9% | 5% | 2% | -1% | 7%
O=C(Nc1ccc2c(c1)OCCO2)C1CCN(C(=O)c2ccccc2)CC1 | 7.4% | 6% | -3% | -6% | 12% | 1% | -4% | -11%
CCCCOc1ccc(C(=O)Nc2cc(C)c(OCC(=O)N3CCOCC3)c(C)c2)cc1 | -6.1% | 8% | 10% | u | u | 8% | -11% | 4%
COc1ccc(-c2nn(CC(=O)NCCc3ccccc3)c(=S)n2C)cc1 | -1.8% | 13µM* | -2% | 15% | 20% | u | 9% | 3%
COC(=O)C(Cc1ccccc1)NC(=O)c1cc(=O)[nH]c2ccccc12 (stereo unspecified) | x | 26% | 5% | x | -8% | u | 0% | -15%
CCCNC(=O)NC(=O)COc1ccc(-c2ccc(C#N)cc2)cc1 | x | -11%[46.1 µM] | x | x | -29% | -23%[46.1 µM] | -1% | 0%
Cc1c(CNC2CCC(C)CC2)c(C(=O)O)c(C)n1Cc1ccc(Cl)cc1 (stereo unspecified) | -3.7% | -3%[46.1 µM] | x | 17% | -25% | 9%[46.1 µM] | x | x
COc1ccc(S(=O)(=O)NC(CC(=O)NC2CCCC2)c2ccco2)cc1 (stereo unspecified) | 4.9% | 5% | 2% | 0% | -17% | 0% | -6% | 20%
O=c1c2cnn(-c3ccccc3)c2ncn1Cc1ccccc1F | -0.7% | -15% | -18% | -13% | -2% | 2% | -8% | -2%
CCOc1cc(C#N)c(NC(=O)c2ccc(OC)c(S(=O)(=O)N3CCN(c4ccccc4)CC3)c2)cc1OCC | -2.5% | 2%[46.1 µM] | x | u | -9% | -27%[46.1 µM] | x | x
Cc1cc(N(CCO)CCO)ccc1C(c1ccc(N(CCO)CCO)cc1C)c1ccccc1Cl | -11% | u | -4% | u | -17% | u | 14% | 14%
COCCNc1nc2c(S(=O)(=O)c3ccccc3)nnn2c2ccc(Cl)cc12 | 0.0% | x | x | 9% | 0% | 5%[46.1 µM] | x | x
CCOC(=O)C1CCCN(C(=O)c2cc3ccccc3cc2OC)C1 (stereo unspecified) | x | 5% | x | x | -2% | 13%[46.1 µM] | x | 0%
CCCCn1cc2c(c1-c1ccc(Cl)cc1)c(=O)n(C)c(=O)n2C | -0.6% | -7%[46.1 µM] | x | 11% | u | u | x | x
COc1ccc(-n2c(=S)[nH]c3cc(C(=O)NCCCN4CCCC4=O)ccc3c2=O)c(OC)c1 | 0.9% | 2% | -4% | 7% | u | u | 2% | 21%
O=C(Nc1cccc(C(=O)O)c1)/C(=C\c1ccccc1)NC(=O)c1ccccc1Cl | -2.2% | 2% | 25% | 3% | x | 1% | 5% | 20%
COCCNC(=O)C(c1ccco1)N(Cc1ccc(OC)cc1)C(=O)Cn1nnc2ccccc21 (stereo unspecified) | 2.5% | 0% | -7% | 13% | 73%[activator] | 0%&1% | -3% | -10%
CCC(=O)c1ccc(OCC(=O)OCC(=O)c2cc(C)n(CC3CCCO3)c2C)cc1 (stereo unspecified) | x | -1% | x | x | -20% | 6% | -2% | -21%
CCOC(=O)CSc1nc2c(c(=O)n(C)c(=O)n2C)n1Cc1ccccc1F | -4.9% | x | -46% | 2% | -7% | x | -3% | 1%
The list continues.
SMILES | Cruzain Triton | LASV entry inh | NS1 function inh | Cruzain inh noDet | StopGo reporter | Marburg entry inh | SARS PLpro yeast | RE007 growth inh
COC(=O)c1sc(N)c(C(=O)OC)c1COC(=O)CNS(=O)(=O)c1cccc(C#N)c1 | -4.3% | 0% | -19% | 3% | -20% | 5% | 10% | -13%
COC(=O)c1ccc(NC(=S)NC2CC2)cc1 | x | x | 2% | x | 21% | x | 0% | 4%
O=C(COc1ccc(Br)cc1)Nc1ccc([N+](=O)[O-])cn1 | -3.5% | 4% | 5% | -9% | 8% | 12% | -4% | -20%
O=Cc1c(N2CCN(c3ccccc3)CC2)nc2ccccn2c1=O | x | x | -7% | x | 0% | x | -1% | 4%
Cn1c(NC2CCCCC2)c(N=O)c(=O)n(C)c1=O | x | x | x | x | 1% | 17%[46.1 µM] | -6% | 1%
FCCCOc1ccc(/C=N/OCc2c(Cl)cccc2Cl)cc1 | -1.6% | 0% | -2% | -29% | -5% | -14% | -1% | -7%
CC(C)(C)OC(=O)n1cc(C(=O)c2ccccc2O)cn1 | x | 14% | -9% | x | -8% | 10%[46.1 µM] | 0% | -21%
Cn1c2ccccc2c(=O)c2cc(C#Cc3ccccn3)ccc21 | x | x | 6% | x | 67%[activator] | x | -6% | 0%
Cc1cccnc1NC(=O)c1cccc(S(=O)(=O)NCc2ccccc2)c1 | x | 5% | x | x | 30%[activator] | -1%[46.1 µM] | 4% | -6%

High-throughput results deposited in PubChem by National Center for Advancing Translational Sciences (NCATS).
